AID504770: growth inhibitors of E. coli YBA685 in a screen for V. cholerae RctB (chromosome II replication) inhibitors. z-score (test concentration not listed). 0.27% of 130,000 active. E. coli YBA685 rctB-dependent plasmid, OD600 growth, 3 h; stronger effect = lower value. AID 504770;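 active means z-score under -2 on both plates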;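 further: wells of about 30 µL received 100 nL stock; score is relative to mean and SD of the test wells; the first replicate is given; strong numbers were not always called active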
Ba CapD inh: inhibitors of Bacillus anthracis CapD enzyme; z-score (test concentration not listed); 0.23% of 140,000 active; purified CapD enzyme, fluorescence intensity read-out; stronger effect = lower value; some hits fall short of the stated cut;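 active means z-score under -4 in either of two replicates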;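 further: stock transfer was 100 nL into about 40 µL; score is relative to mean and spread of the plate; one replicate is shown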
* hit, by the source's call; i = inactive; nt = not tested or not shown.

SMILES	AID504770	Ba CapD inh
CC(Cc1ccc(O)c(O)c1)C(C)Cc1ccc(O)c(O)c1 (stereo not given)	nt	-0.7
CN=Cc1c(Cl)nc2sccn12	-0.85	-0.56
N#C/C(=C(/O)CSc1ccccn1)c1nc2ccccc2s1	-0.5	nt
CCCCC(=O)N1c2ccccc2NC2=C(C(=O)CCC2)C1c1ccccc1 (stereo not given)	-0.35	0.045
Nc1n[nH]c(CCCO)n1	-0.45	nt
COC(=O)CN1C(=S)N(Cc2ccccc2)C(=O)C1CC(=O)Nc1ccc(OC)cc1 (stereo not given)	-0.2	1.01
CN(C)CCNC(=O)Cn1nc(C(F)F)cc1C1CC1	0	0.325
O=C(c1ccccc1Cl)N(Cc1ccccc1)c1ccccn1	-0.5	0.21
CC(C)(C)c1cc(OC(=O)c2ccc(Cl)cc2)c(C(C)(C)C)cc1OC(=O)c1ccc(Cl)cc1	nt	-0.54
COc1ccc2oc(=Nc3ccc(C(=O)O)cc3)c(C(=O)Nc3cc(Cl)ccc3OC)cc2c1	nt	-0.315
CC(=O)N1CCN(C(=S)Nc2ccc(F)cc2)CC1	1.1	nt
Cc1ccnc(Sc2ccc(NC(=O)c3ccc(C(C)(C)C)cc3)cc2)n1	nt	-0.15
OCCNC(=S)NC1CCCC1	-0.6	-0.7
CC(C)C(=O)Nc1ccc(N2CCN(C)CC2)cc1	-0.9	-0.335
COc1ccc(C2=NN3C(C2)c2cc(OC)ccc2OC3c2ccc(F)c(F)c2)cc1 (stereo not given)	nt	-0.155
O=C1OCN2c3ccccc3C34OC12c1ccccc1N3COC4=O	1.65	nt
CC(C)S(=O)(=O)c1cnc(N)nc1N	0.35	0.025
COc1ccc(N=C2NC(=O)/C(=C\c3ccc(Sc4nc5ccccc5[nH]4)o3)S2)cc1	0.95	-1
COc1ccc(N2CCN(C(C)C(=O)N(C)c3ccccc3)CC2)cc1 (stereo not given)	0	nt
COc1ccc(CN=Cc2ccc(C(F)(F)F)cc2)cc1	-0.8	-0.325
O=C(NCCc1ccccc1)c1cc2n(n1)C(C(F)(F)F)CC(c1ccc(Br)cc1)N2 (stereo not given)	0.95	-0.725
O=C(NCc1ccco1)C1Sc2nnc(-c3ccccc3)n2NC1c1ccccc1 (stereo not given)	1.25	-0.235
O=C(Cn1c2ccccc2c(=O)c2cc([N+](=O)[O-])ccc21)Nc1ccc(Cl)c(Cl)c1	nt	0.085
CCOc1ccc(/C(O)=C/C(=O)C(=O)Nc2ccc(S(=O)(=O)NC(C)=O)cc2)cc1	0.15	3.64
COc1cc(OC)c(/C=C2\C(=O)NC(=O)N(C3CCCCC3)C2=O)c(OC)c1	0.3	0.745
Next compounds
SMILES	AID504770	Ba CapD inh
Cc1ccc(-c2cc(-c3ccccc3)c(C#N)c(SCS(=O)Cc3ccccc3)n2)cc1 (stereo not given)	-0.55	-0.76
CCN(CC)C(=O)CSc1nc2ccccc2n1S(=O)(=O)c1cc([N+](=O)[O-])ccc1C	nt	-0.275
O=C(O)C(Cc1ccccc1)N1C(=O)/C(=C/C=C/c2ccco2)SC1=S (stereo not given)	0.4	nt
COc1cc(N)c(/C(N)=N/O)cc1OC	0.4	-0.595
CC(C)C(CC(=O)O)c1c[nH]c2ccccc12 (stereo not given)	-0.3	nt
Cc1oc2c(c1C(=O)NC1CCCCC1)C(=O)c1ccccc1C2=O	-0.35	nt
Cc1nn(-c2ccccc2)c2ncc(C(=O)c3ccccc3O)cc12	0.85	nt
COc1ccc(C2CC(=O)N(C)c3ccccc3S2)cc1OC (stereo not given)	-0.15	nt
CC(C/C=C\Cc1nc2c(c(=O)[nH]1)C(C)(C1CCCCC1)Cc1ccccc1-2)c1ccccc1 (stereo not given)	nt	1.83
CC(O)c1ccc(-c2ccc(CO)o2)cc1 (stereo not given)	0.35	nt
CCc1nnc(NC(=O)CSc2nc(-c3ccccc3)cc(C(F)(F)F)c2C#N)s1	-0.15	0.21
CCSc1nnc(-c2c[nH]c3ccccc23)n1CCOC	-0.25	-0.125
CN(C)c1ccc(N2C(=O)/C(=C/c3ccc([N+](=O)[O-])cc3)C=C2c2ccccc2)cc1	nt	-0.35
CCc1ccc(OCC(=O)NCCc2ccccc2)cc1	0.65	i
CCOC(=O)c1nnc(-c2ccc(C(F)(F)F)cc2)o1	0.6	-0.725
CN1c2ccccc2C(O)=C(C(=S)Nc2ccc(Cl)cc2)S1(=O)=O	nt	-2.14
Cc1cccc(-c2nc(CNC(=O)C3CCCO3)cs2)c1 (stereo not given)	-0.25	-0.565
CNC(=S)N1CCc2cc(OC)c(OC)cc2C1COc1ccc(OC)cc1 (stereo not given)	nt	-0.42
NS(=O)(=O)c1ccc(CCn2c(-c3ccc(Cl)s3)csc2=Nc2ccc(OC(F)(F)Cl)cc2)cc1	nt	-0.465
CN1CCN(NS(=O)(=O)c2ccc3ccccc3c2)CC1	0.6	0.225
CCc1c(C(=O)OC)nnc2cc(C)nn12	-0.15	-0.075
O=C(NCC1CCCCN1)c1cc(OCC(F)(F)F)ccc1OCC(F)(F)F (stereo not given)	nt	0.165
CNC(=S)Nc1cc(Cl)cc(Cl)c1	-1.35	0.075
Cc1nc(N)sc1N=Nc1ccc(S(=O)(=O)N2CCOCC2)cc1	0.05	nt
N#CCc1ccc(NC(=O)Cc2ccccc2)cc1	-0.6	-0.625

A stretch from the list above, for reference:
SMILES	AID504770	Ba CapD inh
CNC(=S)Nc1cc(Cl)cc(Cl)c1	-1.35	0.075
Cc1nc(N)sc1N=Nc1ccc(S(=O)(=O)N2CCOCC2)cc1	0.05	nt
N#CCc1ccc(NC(=O)Cc2ccccc2)cc1	-0.6	-0.625

More compounds follow.
SMILES	AID504770	Ba CapD inh
COc1ccc(C2C3=C(CC(C)(C)CC3=O)Nc3nc(SCc4ccccc4)[nH]c(=O)c32)cc1 (stereo not given)	nt	0.495
O=C(O)c1ccc(NNC(=S)NCCN2CCOCC2)cc1	-0.15	nt
Cc1ccc(C)c2c1-c1ccccc1S(=O)(=O)N2S(=O)(=O)c1ccc2ccccc2c1	nt	-0.115
CC(C)Cn1c(-c2ccncc2)n[nH]c1=S	-0.8	-0.83
COc1ccc(Cl)cc1NC(=O)CN(C)S(=O)(=O)c1ccc2c(c1)CCCC(=O)N2	-0.6	0.495
Cc1nc(-n2cc(F)c(=O)[nH]c2=O)c2nc(C)oc2n1	-1	0.49
Cc1ccc(C(=O)Oc2ccc(C3SCCS3)cc2)cc1	-0.2	0.23
CC1(C)CC(=O)C(C=NC2CCCCC2)=C(O)C1	-0.65	0.555
O=C1C2C3C=CC(C2C(=O)N1Cc1cccnc1)C1C(=O)N(Cc2cccnc2)C(=O)C31 (stereo not given)	nt	-0.065
Cc1ccc(CN(C)CC(=O)Nc2cc(Cl)ccc2C#N)cc1	-0.2	nt
CNC(C)C(=O)c1ccccc1 (stereo not given)	nt	2.1
C=CCN(C(=O)c1cccc2c1SCCC2=O)c1ccccc1	-0.25	-0.335
C=CCc1ccccc1COCC(O)CN1CC(C)OC(C)C1 (stereo not given)	0.6	0.145
CCOC(CNC(=O)c1c[nH]c2ccc(S(=O)(=O)N(C)c3ccc(C(C)C)cc3)cc2c1=O)OCC	nt	1.12
O=C(COCc1cc(-c2ccco2)on1)NCCN1CCOCC1	-0.5	0.19
Cc1nc(C(F)(F)F)ccc1NC(=O)/C=C/C(=O)O	-0.3	-0.595
O=C(C=Cc1ccccc1)N1CCN(c2cccc(Cl)n2)CC1	-0.75	-0.895
CC1=C(C(=O)OC2CCCC2)C2(O)C(=O)c3ccccc3C2(O)N1 (stereo not given)	nt	-0.655
CCOC(=O)N1CCC(NC(=O)CCS(=O)(=O)c2cc(Br)cc3c2N(C(C)=O)CC3)CC1	-0.45	-0.875
CC(=O)N1C(=S)NC(=O)/C1=C/c1cc2ccccc2nc1N1CCOCC1	nt	-0.85
COc1ccc(C(=O)c2[nH]c(-c3ccc(OC)cc3)cc2-c2ccccc2)cc1	-0.45	0.47
NNC(=O)CNC(=O)C12CC3CC(CC(C3)C1)C2	-0.3	nt
O=C(CN1CCN(S(=O)(=O)c2cc(C(F)(F)F)ccc2Cl)CC1)N1CCc2ccccc2C1	-0.15	nt
Cn1ccsc1=NC(=O)c1ccc2c(c1)S(=O)(=O)c1ccccc1C2=O	-0.45	nt
CCOCc1c(C(=O)Nc2cccc(C(=O)NC3CC3)c2)oc2ccccc12	0	nt

Seven entries from above, in markdown.
| smiles | AID504770 | Ba CapD inh |
| --- | --- | --- |
| Cc1nc(C(F)(F)F)ccc1NC(=O)/C=C/C(=O)O | -0.3 | -0.595 |
| O=C(C=Cc1ccccc1)N1CCN(c2cccc(Cl)n2)CC1 | -0.75 | -0.895 |
| CC1=C(C(=O)OC2CCCC2)C2(O)C(=O)c3ccccc3C2(O)N1 (stereo not given) | nt | -0.655 |
| CCOC(=O)N1CCC(NC(=O)CCS(=O)(=O)c2cc(Br)cc3c2N(C(C)=O)CC3)CC1 | -0.45 | -0.875 |
| CC(=O)N1C(=S)NC(=O)/C1=C/c1cc2ccccc2nc1N1CCOCC1 | nt | -0.85 |
| COc1ccc(C(=O)c2[nH]c(-c3ccc(OC)cc3)cc2-c2ccccc2)cc1 | -0.45 | 0.47 |
| NNC(=O)CNC(=O)C12CC3CC(CC(C3)C1)C2 | -0.3 | nt |

Back to the main list, starting three compounds before the break.
SMILES	AID504770	Ba CapD inh
O=C(CN1CCN(S(=O)(=O)c2cc(C(F)(F)F)ccc2Cl)CC1)N1CCc2ccccc2C1	-0.15	nt
Cn1ccsc1=NC(=O)c1ccc2c(c1)S(=O)(=O)c1ccccc1C2=O	-0.45	nt
CCOCc1c(C(=O)Nc2cccc(C(=O)NC3CC3)c2)oc2ccccc12	0	nt
O=C1NN=C(c2ccccc2)/C1=C1\OC(c2ccccc2)=CS1	-0.35	-1.4
Cc1ccc(N(CC(O)CN(CC(C)C)CC(C)C)S(=O)(=O)c2ccccc2)cc1 (stereo not given)	nt	0.26
COc1ccc(Cl)cc1NC(=O)CN(C(=O)c1ccco1)C1CCCCC1	1.85	nt
COC(=O)CN1C(=O)C2(C(C#N)=C(N)Oc3cc(C)oc(=O)c32)c2ccccc21 (stereo not given)	nt	-0.865
O=C(O)Cc1cc(C(F)(F)F)on1	0.45	-0.605
COc1ccc(C2CC(=O)N(CC(=O)Nc3ccc4c(c3)OCO4)c3ccccc3S2)cc1OC (stereo not given)	-1.3	0.14
CCOC(=O)C1=C(C)OC(N)=C(C#N)C1c1ccc(C(F)(F)F)cc1 (stereo not given)	nt	0.945
CCOC(=O)c1cc(=O)c2ccc(OCc3ccccc3)cc2o1	0	-0.43
O=C(NCc1ccc(Cl)cc1)c1cccc(S(=O)(=O)N2CCCC2)c1	-0.2	-0.035
COc1ccccc1C1C(C(C)=O)=C(C)N=c2s/c(=C\c3cc(OC)c(OC)c(OC)c3)c(=O)n21 (stereo not given)	nt	-0.15
O=C(O)C1CC2C=CCC(C1)C2=O (stereo not given)	0.05	-0.88
COc1ccc(CCNC(=O)C(Sc2ccccc2N)c2ccccc2)cc1OC (stereo not given)	nt	-0.88
CCC1(C)Oc2ccc(NC(=O)c3cc(F)c(F)cc3Cl)cc2O1 (stereo not given)	1.4	0.035
NS(=O)(=O)c1cc(Cl)c(NC(=O)CSC2CCCC2)c(Cl)c1	0.55	nt
O=c1[nH]c(C2CCCN(S(=O)(=O)c3cccc(Cl)c3)C2)nc2c1nnn2Cc1ccc(Cl)cc1 (stereo not given)	0.6	0.075
CC(=O)CC(=O)N1CCc2cc(S(=O)(=O)N(C)C)ccc21	nt	0.325
O=C(OCC(=O)N1CCc2ccccc2C1)c1ccccc1O	-0.1	-0.19
O=C(Nc1cccc(F)c1)c1oc2ccccc2c1NC(=O)C1CCCC1	0	nt
O=C(O)Cc1sc(Nc2ccccc2)nc1-c1cccs1	-0.35	-0.855
Cc1ccccc1CSCCC(=O)NC1CCCCC1	1.35	0.445
c1cc(CNC2CC2)ccn1	-0.55	nt
COC(=O)C1=C(C(=O)OC)SC2(S1)C(C(=O)OC)=C(C(=O)OC)SC1=C2c2cccc(C)c2NC1(C)C	nt	0.33
O=c1c2ccccc2c(-c2ccc(Cl)cc2)nn1-c1ccc(Cl)cc1	nt	0.62
C=CCN1C(=O)c2ccc(C(=O)OCC(=O)c3cc(C)n(C)c3C)cc2C1=O	0	nt
Cc1sc2ncn(CC(=O)c3ccccc3)c(=O)c2c1C	1.35	-0.74
(listing goes on)
SMILES	AID504770	Ba CapD inh
COc1ccc2cc(-c3cc(C(F)(F)F)nc(N)n3)ccc2c1	nt	49.8
NC(N)=NC(N)=Nc1ccccc1Br	-0.9	51.6
COC(=O)C1=C(C)OC(N)=C(C#N)C1c1ccc(C#N)cc1 (stereo not given)	nt	0.19
CCCc1c(C)c2ccc(OCC(=O)O)cc2oc1=O	-1.1	69.9
CCn1c(SCC(=O)N2CCC(C)CC2)nnc1-c1ccccc1O	-0.2	-0.945
CC(C#N)Sc1nnc(C2CCCCC2)n1N (stereo not given)	-0.2	nt
CN(C)c1scc(-c2ccccc2)c1C#N	-1.35	-0.485
CCc1nc2cccnc2n1-c1ccc(CC(=O)NCC2CCCO2)cc1 (stereo not given)	0.65	1.08
CNS(=O)(=O)c1ccc(Cl)cc1Cl	0.1	nt
Cc1ccc(C(CC#N)C2CCOC(C)(C)C2)cc1 (stereo not given)	0.25	-0.21
O=S(=O)(c1cccc2nsnc12)N1CCN(C(c2ccccc2)c2ccccc2)CC1	0.5	0.31
CC1(C)c2ssc(=S)c2-c2ccccc2N1C(=O)c1sc2ccccc2c1Cl	nt	0.34
NC(=O)CN(c1ccc(Cl)cc1Cl)S(=O)(=O)c1ccccc1	-0.85	0.245
Cc1noc(C)c1COc1cccc(C(=O)OC(C)C#N)c1 (stereo not given)	-0.35	nt
